Screens deposited in PubChem by several laboratories.
YopH inh – blocks Yersinia enterocolitica YopH tyrosine phosphatase | fluorescence Ex485/Em525 | inhibition, %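 (about 10 µM by stock and volumes)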 | 140,000 tested, 0.16% active;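 active = inhibition of 50% or more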;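 also: controls were vehicle for no effect and minimum signal wells for full effect; inactives centre near -20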
RecA intein inh – blocks M. tuberculosis RecA intein splicing | inhibition, %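 (about 9 µM by stock and volumes)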 | P9WHJ3 | 290,000 tested, 0.75% active | cell-free RecA intein splicing, fluorescence; in the data active = inhibition above about 30%; inconclusive = no clear call, values can overlap the other calls;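 also: 0% = vehicle wells and 100% = reference inhibitor control wells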
Target sequence (P9WHJ3 whole entry, looked up): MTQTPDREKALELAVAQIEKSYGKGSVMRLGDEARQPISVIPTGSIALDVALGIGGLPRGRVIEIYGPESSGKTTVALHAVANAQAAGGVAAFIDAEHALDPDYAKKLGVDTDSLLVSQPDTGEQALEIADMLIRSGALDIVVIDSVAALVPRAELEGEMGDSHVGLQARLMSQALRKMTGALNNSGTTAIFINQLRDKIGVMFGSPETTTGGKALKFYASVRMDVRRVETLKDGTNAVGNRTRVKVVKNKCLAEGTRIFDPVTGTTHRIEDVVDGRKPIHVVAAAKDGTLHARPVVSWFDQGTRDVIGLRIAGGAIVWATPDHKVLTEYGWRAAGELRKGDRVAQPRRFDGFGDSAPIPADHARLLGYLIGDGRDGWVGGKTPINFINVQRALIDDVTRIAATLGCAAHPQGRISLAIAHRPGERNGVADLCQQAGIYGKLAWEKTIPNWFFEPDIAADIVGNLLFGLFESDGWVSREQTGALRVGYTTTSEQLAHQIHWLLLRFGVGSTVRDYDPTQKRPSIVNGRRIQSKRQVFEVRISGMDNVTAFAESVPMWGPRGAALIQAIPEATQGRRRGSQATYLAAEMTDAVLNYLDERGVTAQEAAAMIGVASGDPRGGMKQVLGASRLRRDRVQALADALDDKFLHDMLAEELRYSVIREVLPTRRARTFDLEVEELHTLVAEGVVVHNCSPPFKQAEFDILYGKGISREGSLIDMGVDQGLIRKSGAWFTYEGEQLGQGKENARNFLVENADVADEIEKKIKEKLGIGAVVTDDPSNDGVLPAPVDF
Arbovirus anti – antivirals against arbovirus infection | inhibition, % at 10 µM | arbovirus infection cell-based antiviral screen | 200,000 tested, 0.37% active;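 active = inhibition from about 30%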;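 also: bluetongue infection of BSR cells; cell survival read as ATP light after 72 h; 0% = infected wells without compound and 100% = uninfected wells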
Mtb bLac sens – beta-lactam sensitization of Mtb H37Rv; M. tuberculosis H37Rv growth with meropenem, percent inhibition; hits of this screen are not shown here; inhibition, % at 25 µM; 330,000 tested, 0.27% active; AID 434955;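 active = about 74% or more and at least 40 points above the plate without the antibiotic, then above 30% in a dose series; inconclusive = first-round hits that could not be retested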;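 also: growth measured after seven days incubation then overnight dye step; 0% = bacteria only wells and 100% = bacteria with antibiotic; twin plates without the antibiotic show which effects depend on it; some results filed as inactive read as strong as hits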
Mtb growth – M. tuberculosis H37Rv growth inhibitors, H37Rv strain (AID 1626); inhibition, % at 10 µM, or IC50 in µM where a hit was titrated; 220,000 tested, 0.95% active; M. tuberculosis H37Rv growth inhibition; higher % means a stronger effect;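 active = confirmed in a dose series; inconclusive = inhibition above 80% but not taken into the dose series; inactive = below 80% or under 30% at every dose of the series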;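 also: bacteria incubated seven days before Alamar blue readout; 0% = bacteria only wells and 100% = bacteria with antibiotic wells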
Arbovirus anti repeat – further read-out of Arbovirus anti, marked with its call; inhibition, %; measured here: 10K subset replicate screen; many hits read low in the repeat;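 first of two repeat runs on a subset; 0% = infected and 100% = uninfected wells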
Numbers without * were called inactive; ? = inconclusive; . = no result given. Not all compounds are listed; rates above refer to the full screens.

SMILES	YopH inh	RecA intein inh	Arbovirus anti	Mtb bLac sens	Mtb growth	others
CCN1C/C(=C/c2cccc([N+](=O)[O-])c2)C(=O)/C(=C/c2cccc([N+](=O)[O-])c2)C1	-31.0	.	-37.2	84.4	?
CN(C)/C=N/c1c(C#N)cnn1-c1ccc(C(F)(F)F)cn1	-28.0	.	-3.4	8.2	1.3%
C=CCn1c(=NC(=O)c2sc3ccccc3c2Cl)sc2cc(S(N)(=O)=O)ccc21	-9.2	-2.3	-4.8	?	2.2%
C[N+]1(CC(=O)OCCCc2ccccc2)CCCC1	-19.8	-0.9	3.2	-2.4	-7.1%
Cc1ccc(S(=O)(=O)N(C)C)cc1NC(=O)C(C)Sc1ccccc1 (centres undefined)	.	1.8	9.7	-8.5	-8.8%
Cc1ccc(/C=N/Nc2nc(N3CCCCC3)nc(N3CCCCC3)n2)o1	.	-0.8	2.9	-2.1	0.1%
CC1=C(C(=O)OCc2ccccc2)C(c2ccc(N(C)C)cc2)NC(=O)N1 (centres undefined)	-20.0	0.1	11.2	0.7	0.9%
COCCN(C(=O)COC(=O)CCC(=O)c1ccc(Cl)cc1)c1c(N)n(Cc2ccccc2)c(=O)[nH]c1=O	.	2.7	.	-11.4	.
COc1ccc(CC(=O)N2CCC(n3nccc3NC(=O)C3CCOC3)CC2)cc1 (centres undefined)	.	-2.8	.	-1.7	.
Cc1ccc(C(=O)CCC(=O)Nc2cccc(C(F)(F)F)c2)cc1	-38.2	0.3	3.5	-8.6	21.4%
COC(=O)CCc1nc2cc(Cl)ccc2n(Cc2ccccc2)c1=O	.	1.5	-4.7	4.4	-6.2%
O=C(NC(=S)Nc1ccc(F)cc1)c1ccc2c(c1)OCCO2	.	-4.4	0.2	51.6	?
CCOc1cc([N+](=O)[O-])cc(/C=C2/NC(=O)N(Cc3ccccc3F)C2=O)c1O	.	0.3	2.8	8.9	3.5%
CCc1ccc(S(=O)(=O)NCCc2csc(-c3ccccc3)n2)s1	6.3	8.7	-33.0	9.7	10.8%
O=C(O)[C@H](Cc1ccccc1)Nc1ccc([N+](=O)[O-])cn1	.	-0.5	.	0.8	.
CC(C)CNC(=O)C(=O)NCC1OCCN1S(=O)(=O)c1cccs1 (centres undefined)	.	0.7	.	0.8	.
CCOC(=O)c1cc2c(c(CSc3nc4ccccc4c(=O)n3Cc3ccco3)c1)OCOC2	-4.2	-7.0	-2.0	1.3	-4.1%
COC(=O)C1C(O)=C(C=Nc2ccccc2)C(=O)CC1(C)C (centres undefined)	.	-6.5	9.0	2.9	18.0%
CN(C)CCNC(=S)Nc1ccc(F)c(F)c1F	.	-0.1	0.8	-2.3	8.6%
O=c1cc(Nc2ccc3c(c2)OCCO3)[nH]c(=O)n1-c1ccc(Br)cc1	-28.9	1.2	11.5	-0.4	-2.9%
COc1cc(C(C#N)N2N=C(c3ccccc3)CC2c2ccccc2)ccc1O (centres undefined)	-27.3	12.8	-15.2	4.6	-13.8%
COc1ccc(C2=NN(CC(=O)NCC(OC)OC)C(=O)CC2)cc1	.	-0.1	.	1.6	.
Cc1onc(-c2c(Cl)cccc2Cl)c1NC(=O)NNc1c(Cl)cncc1Cl	.	-3.1	.	-4.5	-5.8%
CN(CC(=O)Nc1ccc(OC(F)(F)F)cc1)C1CCCCC1	.	-0.6	-11.4	-13.8	-6.5%
Cc1c(CCOC(=O)C23CC4CC(CC(C4)C2)C3)sc[n+]1CC#N	.	9.9	-0.7	3.8	0.6%
SMILES	YopH inh	RecA intein inh	Arbovirus anti	Mtb bLac sens	Mtb growth	others
Cc1ccc(S(=O)(=O)N2CCN(C3CCC(c4ccccc4)CC3)CC2)cc1 (centres undefined)	-29.8	3.5	4.2	-12.4	.
CC(=O)c1ccc(NC(=O)Nc2cccc(Cl)c2)cc1	-2.4	7.4	-30.4	-1.5	0.8%
Cc1sc2nc(CN3CCCC3)nc(NCc3ccncc3)c2c1C	.	-9.5	1.0	0.3	2.8%
O=C(N/C=C/n1cnc2cc(C(F)(F)F)ccc21)c1ccccc1F	.	0.2	-4.3	7.5	-6.5%
O=C(Nn1c(-c2ccccc2)nc2ccccc2c1=O)c1cccs1	-17.9	-8.2	-1.1	3.9	8.3%
N#CC1C=Cc2ccccc2N1C(=O)c1ccccc1 (centres undefined)	.	5.4	.	-1.7	1.3%
O=C(CNCc1ccccn1)Nc1ccc([N+](=O)[O-])cc1C(=O)Nc1ccccc1F	.	-2.4	.	6.6	.
Cc1ccccc1C(=O)Nc1ccnn1C1CCN(C(C)Cc2ccccc2F)CC1 (centres undefined)	.	-1.8	.	1.0	.
CN(C)CCCN1C(=O)c2oc3ccc(Cl)cc3c(=O)c2C1c1cccnc1 (centres undefined)	-18.9	-1.8	1.1	-0.9	1.7%	Arbovirus anti repeat=2.9
Cc1ccc(/C=N/NC(=O)c2ccc(Br)o2)s1	-9.9	2.1	-11.4	-3.8	1.9%
COc1ccc(-c2cn(CCC(=O)NCc3ccc(C)cc3)c(-c3ccncc3)n2)cc1	.	-1.2	.	-6.3	.
CCOc1ccc(S(=O)(=O)N2CCN=C2c2ccccc2)cc1	.	-0.9	.	-17.5	.
COc1nccnc1NS(=O)(=O)c1ccc(N/C=C2\CCCCC2=O)cc1	.	0.4	6.7	6.6	3.1%
COCCn1c(SCC(=O)Nc2cc(C(C)(C)C)nn2-c2ccccc2)nc2ccccc2c1=O	-35.3	-4.1	-10.3	-1.1	0.9%
CNC(=S)N1CCC(NC(=O)C23CC4CC(CC(C4)C2)C3)CC1	.	-0.5	-5.3	-8.5	1.6%
CCc1nn(CC(=O)NCCCc2ccccc2)c(=O)c2cc3c(OC)cccc3n12	.	-1.6	.	-2.5	.
Cc1onc(-c2ccccc2)c1C(=O)NC(=S)NNC(=O)c1cc(-c2ccc(F)cc2)n[nH]1	.	0.5	.	-4.6	.
Cc1onc(-c2ccccc2)c1-c1ccnn1S(=O)(=O)c1ccc(Cl)cc1	.	7.5	.	3.5	4.5%
O=C(/C=C/c1ccco1)NC(=S)Nc1ccccn1	6.0	1.6	4.0	?	3.0%
Cc1ccc(NC(=O)NNc2cccc(Cl)n2)cc1	-82.0	-9.3	-5.6	-1.8	-8.1%
CC(=O)Nc1ccc(/C=C/c2nc3ccccc3o2)cc1	.	-1.4	.	2.3	.
CCCn1c(C)cc(C(=O)COC(=O)CN=C2NS(=O)(=O)c3ccccc32)c1C	-11.1	-1.7	1.4	-15.0	-3.7%
Cc1cc(-c2nnnn2-c2cc(Cl)cc(Cl)c2)no1	.	1.5	.	0.5	-1.7%
Cc1nnc(SCC(=O)N2c3ccccc3CC2C)s1 (centres undefined)	-34.8	0.4	8.0	-12.2	8.1%
Cn1c(-c2ccc3ccccc3n2)[n+](C)c2ccccc21	.	3.4	.	-7.0	-12.8%
SMILES	YopH inh	RecA intein inh	Arbovirus anti	Mtb bLac sens	Mtb growth	others
Cc1cc(=O)oc2cc(OCC(=O)Nc3ccc(S(=O)(=O)N(C)C)cc3)ccc12	.	.	.	-3.2	-9.0%
COc1cc(C(C)=O)ccc1COc1ccc(C(=O)OC(C)C(=O)NC(N)=O)cc1OC (centres undefined)	-28.4	4.9	-5.0	-1.9	0.1%
Cc1ccc2c(n1)sc1c(-c3ccc(Br)cc3)c(C#N)c(N)nc12	0.4	.	9.1	92.5	3.6%
CC/C(=C\c1oc2cc3ccccc3cc2[n+]1CC)Nc1ccccc1	.	-4.6	-8.0	8.9	8.1%
Cc1cc(N2CCOCC2)nc2ccc(NC(=O)C3CCC(C)CC3)cc12 (centres undefined)	-15.3	-0.8	-14.2	43.8	75.2%	Arbovirus anti repeat=-7.6
O=S(=O)(Nc1cccc(-c2cn3ccsc3n2)c1)c1ccc(F)cc1	-61.9	4.4	-7.5	-2.3	-7.7%
COc1cccc(CN2CC(C(=O)N3CCN(C(C)C)CC3)CCC2=O)c1 (centres undefined)	.	-7.2	.	2.7	.
CCOC(=O)/C(=C/c1cn(C)c2ccccc12)NC(=O)c1ccccc1	.	-0.9	.	-1.4	14.2%
Cc1ccc(OCc2cc(C(=O)N(C)Cc3nccn3C)no2)cc1C	.	0.1	.	43.0	.
Cc1ccc2cc(CCNC(=O)c3ccco3)c(=O)[nH]c2c1	-2.3	3.3	6.8	6.0	3.5%
Cc1nnc(SCC(=O)Nc2ccc3c(c2)OCCO3)s1	-23.1	1.8	-4.7	?	19.1%
CCCc1ccc2oc(C(=O)N3CCC(COC)C3)c(C)c2c1 (centres undefined)	.	3.8	.	9.9	.
O=C(Nc1ccccc1)Nc1ccc(Oc2cccnc2)nc1	.	.	.	-3.4	-5.0%
COC(=O)c1sccc1NC(=O)c1c(C)noc1C	-12.9	4.5	6.8	-3.7	1.0%
O=C(CN1CCCCCC1)Nc1ccc(Oc2ccccc2)cc1	.	-0.5	-11.5	-3.4	4.4%
CCc1ccc(C2CC(=O)Nc3c2c(=O)nc2c(C)cccn32)cc1 (centres undefined)	.	0.1	2.9	-3.1	-1.1%
CCCCCNCc1cccn1C	-7.8	-0.3	-0.6	12.4	-5.2%
COc1ccc(S(=O)(=O)N2CCCCC2)cc1NC(=O)c1cc(C)on1	.	-2.5	8.2	4.0	-0.8%
Cc1c(C(=O)Nc2ccccn2)oc2ccc(Br)cc12	.	-0.8	.	-2.5	.
O=C(NCc1ccccc1)C1CCCN(S(=O)(=O)c2cccs2)C1 (centres undefined)	-11.3	1.2	11.9	9.2	-0.2%
COc1ccccc1C/C(N)=N/OC(=O)c1ccc2c(c1)OCO2	.	-1.7	2.8	-2.8	-4.5%
COCCn1nnnc1C(c1cccs1)N1CCN(c2cc(C)ccc2C)CC1 (centres undefined)	-23.5	11.0	8.1	-0.8	1.6%
Cc1ccc(C)c(OCCCC(=O)Nc2nccs2)c1	-11.8	1.1	1.6	-4.1	-4.3%
COc1ccccc1N1CCN(CC(O)COCCOc2ccc(Br)cc2)CC1 (centres undefined)	-1.8	-0.4	-30.1	-1.4	9.8%
O=C(COC(=O)C1(c2ccccc2)CC1)NNC(=O)c1ccccc1	.	-3.8	.	-3.8	.
SMILES	YopH inh	RecA intein inh	Arbovirus anti	Mtb bLac sens	Mtb growth	others
CCOC(=O)N1CCN(C(=O)CS(=O)Cc2nc(-c3ccc(C)cc3)oc2C)CC1 (centres undefined)	-7.2	-0.8	1.7	-2.6	9.4%	Arbovirus anti repeat=2.8
O=S(=O)(c1ccc(Oc2ccc(-c3nnco3)cc2)nc1)N1CCC(Cc2ccccc2)CC1	-20.9	-0.5	-10.8	-4.3	-0.3%
CC(C)CN(CC(C)C)S(=O)(=O)N1CCC(C(=O)NC2CCCCCCC2)CC1	-42.9	-3.6	-11.2	0.1	3.1%
COc1ccc(N=Cc2c(O)n(-c3cccc(C)n3)c(=O)c3ccccc23)cc1	-19.6	-14.9	-6.1	53.0	16.8%
COCCNC(=O)Cn1c(=O)n(CCCCCC(=O)Nc2ccccc2)c(=O)c2sccc21	-25.4	6.6	-3.2	-5.2	-0.8%
Cc1ccc(NC(=O)Nc2cccnc2)cc1NC(=O)Nc1cccnc1	.	-1.3	.	37.7	8.8%
O=C(CSc1nc2ccccc2s1)NC1CCCC1	.	2.1	.	-13.1	16.1%
O=C(NCC12CC3CC(CC(C3)C1)C2)c1nc2ncccn2n1	-10.0	-2.5	-22.6	-13.7	2.6%
CCc1c(C)sc(NC(=S)NC(C)C2CCCO2)c1C(=O)OC (centres undefined)	.	2.6	20.3	1.5	-0.5%
CCCCOc1ccc(C(C)NC(=O)CCS(=O)(=O)Cc2ccccc2F)cc1 (centres undefined)	-30.1	-2.4	-9.5	1.0	1.9%
O=C(CSc1ccc(-c2ccccn2)nn1)N1CCc2ccccc21	.	-1.5	0.2	0.8	2.8%
Cc1cccc2sc(NNC(=O)C3=COCCO3)nc12	.	-5.5	3.7	-4.0	5.0%
Cn1c(O)c(C(=N)COc2ccccc2)c(=O)n(C)c1=O	-8.1	-3.1	5.8	6.7	-1.1%
CN(Cc1ccccc1)C(=O)CSc1nnc(-c2ccco2)n1-c1ccccc1	-39.8	5.2	-6.5	-10.2	2.6%
CC1CCC(C(C)C)C(=O)/C1=C/c1ccc(N)cc1 (centres undefined)	.	-0.6	.	-1.5	10.5%
COc1ccccc1C(=O)N1CCN(c2ccc(N3CCOCC3)nn2)CC1	.	-6.4	.	-7.6	.

Filtered by structure, the entries above containing a nitro group on carbon
SMILES	YopH inh	RecA intein inh	Arbovirus anti	Mtb bLac sens	Mtb growth	others
CCN1C/C(=C/c2cccc([N+](=O)[O-])c2)C(=O)/C(=C/c2cccc([N+](=O)[O-])c2)C1	-31.0	.	-37.2	84.4	?
CCOc1cc([N+](=O)[O-])cc(/C=C2/NC(=O)N(Cc3ccccc3F)C2=O)c1O	.	0.3	2.8	8.9	3.5%
O=C(O)[C@H](Cc1ccccc1)Nc1ccc([N+](=O)[O-])cn1	.	-0.5	.	0.8	.
O=C(CNCc1ccccn1)Nc1ccc([N+](=O)[O-])cc1C(=O)Nc1ccccc1F	.	-2.4	.	6.6	.
